High-throughput results from PubChem.
eIF4H FP inh: human eIF4H binding inhibitors, primary screen, translation initiation inhibitor project, biochemical, uHTS, fluorescence polarization; Eukaryotic translation initiation factor 4H (Homo sapiens), Q15056; eIF4H fluorescence polarization binding assay; inhibition, % at 35 µM; 0.94% of 290,000 active; AID 2012, 2009;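 active means 50% or more with normal probe brightness, or confirmed in later tests; inconclusive means above 50% with abnormal brightness, or retests that disagree; inactive means below 50% or failed in later tests; about a fifth of its hits are not listed in these tables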;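 further: calls also rest on retests at 20 µM and on dose response follow-up; 0% = protein and probe with vehicle and 100% = probe without protein; strong numbers were not always called active; many hits fall short of the cut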
Env fusion inh: inhibitors of HIV-1 Env-driven cell-cell fusion, primary screen, HeLa-JRFL effector, CEM21 target cells, luciferase; 1.1% of 360,000 active; inhibition, % at 12.3 µM; AID 651610, 2012;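 active means mean replicate inhibition score of at least 50 and every replicate individually at or above 50; inconclusive means only one of the two criteria met; inactive means mean below 50 and not all replicates reaching 50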;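 further: 0% = plate neutral controls and 100% = maraviroc near 300 nM; one replicate is shown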
PABP FP inh: PABP poly(A) RNA binding inhibitors, primary screen, biochemical, fluorescence polarization, uHTS | Polyadenylate-binding protein 1 (Homo sapiens), P11940 | AID 2014, 2009 | inhibition, % at 35 µM | 1% of 290,000 active;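 active means 50% or more with normal probe brightness, or confirmed in later tests; inconclusive means above 50% with abnormal brightness, or retests that disagree; inactive means below 50% or failed in later tests; about a fifth of its hits are not listed in these tables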;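 further: calls also rest on retests at 20 µM and on dose response follow-up; controls were probe without protein and protein plus probe with vehicle; some compounds called inactive have numbers as strong as hits; many hits fall short of the cut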
Target sequence (P11940 whole entry, looked up): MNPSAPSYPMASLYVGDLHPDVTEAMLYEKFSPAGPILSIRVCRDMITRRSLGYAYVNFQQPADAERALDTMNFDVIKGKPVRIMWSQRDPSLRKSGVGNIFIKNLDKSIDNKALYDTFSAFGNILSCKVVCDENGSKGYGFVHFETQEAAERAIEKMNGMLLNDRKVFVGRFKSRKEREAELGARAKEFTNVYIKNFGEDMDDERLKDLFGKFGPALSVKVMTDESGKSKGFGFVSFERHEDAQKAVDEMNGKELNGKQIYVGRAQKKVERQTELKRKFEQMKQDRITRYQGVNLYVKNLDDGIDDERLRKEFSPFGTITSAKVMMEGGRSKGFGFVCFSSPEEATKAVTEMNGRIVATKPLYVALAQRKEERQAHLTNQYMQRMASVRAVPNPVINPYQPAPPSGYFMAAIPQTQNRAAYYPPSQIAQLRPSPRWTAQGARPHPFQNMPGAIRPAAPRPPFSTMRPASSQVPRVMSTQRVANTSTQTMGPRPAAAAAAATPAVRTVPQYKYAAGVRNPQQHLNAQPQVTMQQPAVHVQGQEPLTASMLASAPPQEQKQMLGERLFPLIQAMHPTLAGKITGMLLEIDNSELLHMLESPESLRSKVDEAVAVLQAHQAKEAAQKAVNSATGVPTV
Yeast UUG start: modulators of yeast start codon fidelity, primary screen, whole organism, S. cerevisiae, single point, plate reader; S. cerevisiae UUG-firefly luciferase reporter, luminescence/redox ratio; activity score, % at 18.7 µM; 0.13% of 350,000 active; AID 602363, 2012;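 active means replicate mean at a twofold rise or more, about +100% in these data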;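 further: firefly luciferase made from a UUG start codon reports start codon fidelity; reporter light over untreated wells divided by growth signal over untreated wells; some hits fall short of that in this replicate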
CSC inhib: cancer stem cell viability inhibitors, primary screen, luminescence; 1.1% of 300,000 active; inhibition, % at 7.5 µM; cancer stem cell-like cells viability; AID 2717, 2010;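 active means mean at 75% or more and at least half the replicates too; inconclusive means mean and replicates disagree; tested in HMLE shEcad cells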;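 further: 0% = median of negative and 100% = median of positive control wells; the first replicate is given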
MT1-MMP act inh: blockers of MT1-MMP proenzyme processing, primary screen, HT1080 RFP-PRO-GFP cells, GFP/RFP fluorescence; 0.061% of 360,000 active; GFP/RFP ratio change, % at 20 µM; Matrix metalloproteinase-14 (Homo sapiens), P50281; AID 651647, 2012; GFP/RFP ratio fluorescence, overnight; percent of plate control window, DMSO zero;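 active means GFP/RFP ratio change of at least 30% with cell ATP level not reduced by more than half and red fluorescence within 50% of control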; further: strong numbers were not always called active
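Assay system: RFP-PRO-GFP reporter HT1080 cells; read-out basis: GFP/RFP fluorescence ratio; benchmarks: DMSO wells and RFP-L50D-GFP cells; doses: 20 µM single dose, 1% DMSO; schedule: overnight cell settling, then overnight compound exposure, 37 °C, 5% CO2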
Rce1 inh: yeast Rce1p protease inhibitors, primary screen, biochemical, fluorescence, cell-free homogeneous. 0.27% of 290,000 active. CAAX prenyl protease 2 (Saccharomyces cerevisiae (strain ATCC 204508 / S288c)), Q03530. yeast membranes, quenched prenylated peptide cleavage fluorescence. calls only;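 active means fall in fluorescence gain of 50% or more versus controls, with final raw signal at or below 3038400; inconclusive means same 50% fall but final raw signal above 3038400; inactive means fall in fluorescence gain under 50%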;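 further: plate controls were neutral control wells for no effect and wells lacking membranes for full effect; tested at 10 µM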
MT1-MMP act inh RFP: second read-out of MT1-MMP act inh, no call of its own (marks repeat the call); RFP signal change, %; measured here: RFP expression control read;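 0 = vehicle wells; hits needed this value within 50% of zero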
* hit, by the source's call; i = inactive; u = inconclusive; x = no result given; & = joins results of further samples. Not all compounds are listed; count on the stated rates, not on these rows.

SMILES	eIF4H FP inh	Env fusion inh	PABP FP inh	Yeast UUG start	CSC inhib	MT1-MMP act inh	MT1-MMP act inh RFP	Rce1 inh
CCC(CO)Nc1ccc([N+](=O)[O-])c2cccnc12 (stereo not given)	-8	-217	8	16	-10	21	-3	i
COc1cc(C(=O)OC2C[C@H]3CC[C@@H](C2)N3C)ccc1O (stereo not given in full)	-1	6	2	-15	1	-9	2	i
Cc1cccc(C)c1-n1nnnc1C(c1cccs1)N1CCC(n2c(=O)[nH]c3ccccc32)CC1 (stereo not given)	x	25	x	-9	x	-1	-11	x
Cc1cc(C(=O)Nc2ccc3c(c2)OCCO3)nn1C(C)(C)C	-1	-49	5	x	0	0	-1	i
O=C(C(=O)N1CCOCC1)c1cn(Cc2ccccc2Cl)c2ccccc12	4	-22	7	-3	4	-4	-5	i
CCc1ccc(C2=NN(CCC(=O)N3CCC4(CC3)OCCO4)C(=O)CC2)cc1	-6	-3	-8	-10	x	-5	-3	i
CCOc1cc(CNCCc2ccccc2F)ccc1OC	-10	5	-1	-3	5	1	3	i
COc1ccc(C(C)=O)cc1CC(C(=O)c1ccc(C)c(C)c1)N(C)C (stereo not given)	5	-3	10	-4	7	-8	-4	i
COC(=O)C1=C(c2cccc(OCc3ccccc3)c2)C[C@@H]2CC[C@H]1N2C(=O)NCCCOC(C)C	x	6	x	5	13	0	-14	x
CCCCn1c(NC(=O)c2ccco2)c(C(=O)OCC)c2nc3ccccc3nc21	4	x	14	-12	11	-100	9	i
O=c1[nH]c2ccccc2n1C1CCN(C(c2cccs2)c2nnnn2Cc2ccccc2)CC1 (stereo not given)	x	30	x	-5	x	-21	-16	x
CCN(CC)c1ccc(N=Cc2c(O)n(Cc3ccccc3)c(=O)[nH]c2=O)cc1	10&5	1&12	9&12	-8	-7&1	-82&-101	11&2	i
COC(=O)C1=C(c2cccc(OC)c2OC)C[C@@H]2CC[C@H]1N2C(=O)NC1CC1	x	-12	x	-1	-13	1	7	i
COc1ccc(C(=O)NC(=S)N2C[C@H]3C[C@H](C2)c2cccc(=O)n2C3)cc1	6	x	10	-22	-7	1	1	i
COc1cc(C=C2C(=O)NC(=O)NC2=O)ccc1OS(=O)(=O)c1ccccc1[N+](=O)[O-]	-7	-16	5	0	x	3	1	i
CNC(=O)c1cccn(Cc2cc(C(F)(F)F)cc(C(F)(F)F)c2)c1=O	0	-26	-5	x	-14	0	-17	i
CCCc1cc(=O)oc2cc(OCC(=O)N3C[C@H]4C[C@@H](C3)c3cccc(=O)n3C4)ccc12	2	x	-8	-18	-6	-4	2	x
CCN1CCN(Cc2cc(C(C)(C)C)c(O)c(C(C)(C)C)c2)CC1	6	-18	13	x	14	x	x	i
Cc1noc(C)c1COc1ccc(C(=O)NCC2(N(C)C)CCCCC2)cc1	x	-8	x	-19	x	4	4	x
Cn1cc(Br)c(C(=O)Nc2ccc3c(C(F)(F)F)cc(=O)oc3c2)n1	-9	-8	18	-13	-4	2	5	i
Cc1cccc(-n2c(O)c(/C=C/C=Nc3ccccc3)c(=O)[nH]c2=O)c1	u	9	5	x	9	-102	-1	i
CC12CC[C@H]3[C@@H](CCC4(O)C[C@H](O)CCC34/C=N/NC(=O)c3ccc(O)cc3)C1(O)CCC2C1=CC(=O)OC1 (stereo not given in full)	2	-3	4	-6	-18	-1	1	i
CCOc1cc(CN2CCN(C(=O)Cc3ccccc3)CC2)ccc1OC	16	2	6	0	-11	2	1	i
Oc1ccc(O)c2c1C1(Cl)C(Cl)=C(Cl)C2(Cl)C1(Cl)Cl	x	39	x	-4	x	4	-8	x
CN1CCCC(C(=O)c2ccc(Cl)cc2)C1 (stereo not given)	-2	0	-9	x	-4	2	-3	x
COc1ccc(NP(=O)(Oc2cccc(C)c2)Oc2cccc(C)c2)cc1OC	-14	-82	-14	x	6	2	0	i
O=[N+]([O-])c1ccc(N2CCOCC2)c2cccnc12	4	7	4	10	-13	5	-1	i
Cc1c(C=C2C(=O)NC(=O)NC2=O)c(=O)n(-c2ccccc2)n1C	u	10	-3	-19	-2	-8	0	i
O=C(N/N=C/c1c(O)n(CCc2ccc(F)cc2)c(=O)[nH]c1=O)c1ccncc1	-1	-7	5	x	-5	-12	1	i
C(#CCN1CCCC1)CN1CCCC1	x	-6	x	-7	x	4	3	x
O=S(=O)(c1ccc(Cl)cc1)N1Cc2ccccc2-n2nncc2C1	x	-10	x	-5	x	5	-7	x
CC/C(=N\N1CCCCCC1)c1c(O)n(-c2ccccc2C)c(=O)[nH]c1=O	6	x	3	x	13	-2	-8	i
C=C1N2CCC(CC2)C1(O)c1ccccc1C (stereo not given)	-2	x	6	-7	-4	-3	-1	x
CCN1CCC(O)(c2ccccc2)C(C(=O)c2ccccc2)C1 (stereo not given)	x	x	x	x	11	-3	3	i
O=c1cccc2n1CC1CC2CN(S(=O)(=O)c2ccccc2)C1 (stereo not given)	-13	x	9	-3	-15	7	-1	i
Cc1nc2ccccc2c(=O)n1-c1ccc(F)cc1F	-7	16	-3	x	-3	-3	-2	i
CCCCn1c(O)c(/C=N/N2CCCCC2c2cccnc2)c(=O)[nH]c1=S (stereo not given)	14	0	8	-8	-3	-3	0	i
CC(=O)c1cccc(OCC(O)CN2CC=C(c3ccccc3)CC2)c1 (stereo not given)	-6	-20	-4	10	1	-1	-2	i
COC(=O)C1=C(c2ccccc2)C[C@@H]2CC[C@H]1N2C(=O)N1CCC(O)CC1	x	-3	x	-21	-4	1	-2	i
Cc1ccc(N2C(=O)NC(=O)/C(=C/c3ccc(-c4ccc(C(=O)O)c(Cl)c4)o3)C2=O)cc1	u	0	-12	x	x	-9	2	i

7 compounds picked at random from those above, as already listed:
SMILES	eIF4H FP inh	Env fusion inh	PABP FP inh	Yeast UUG start	CSC inhib	MT1-MMP act inh	MT1-MMP act inh RFP	Rce1 inh
O=c1cccc2n1CC1CC2CN(S(=O)(=O)c2ccccc2)C1 (stereo not given)	-13	x	9	-3	-15	7	-1	i
C=C1N2CCC(CC2)C1(O)c1ccccc1C (stereo not given)	-2	x	6	-7	-4	-3	-1	x
O=S(=O)(c1ccc(Cl)cc1)N1Cc2ccccc2-n2nncc2C1	x	-10	x	-5	x	5	-7	x
CC(=O)c1cccc(OCC(O)CN2CC=C(c3ccccc3)CC2)c1 (stereo not given)	-6	-20	-4	10	1	-1	-2	i
Cc1nc2ccccc2c(=O)n1-c1ccc(F)cc1F	-7	16	-3	x	-3	-3	-2	i
CC/C(=N\N1CCCCCC1)c1c(O)n(-c2ccccc2C)c(=O)[nH]c1=O	6	x	3	x	13	-2	-8	i
COC(=O)C1=C(c2ccccc2)C[C@@H]2CC[C@H]1N2C(=O)N1CCC(O)CC1	x	-3	x	-21	-4	1	-2	i

Going on with the list.
SMILES	eIF4H FP inh	Env fusion inh	PABP FP inh	Yeast UUG start	CSC inhib	MT1-MMP act inh	MT1-MMP act inh RFP	Rce1 inh
O=c1[nH]c(O)c(N=Nc2ccc(S(=O)(=O)N3CCOCC3)cc2)c(=O)[nH]1	31	9	-1	x	-9	9	4	x
CCOP(=S)(OCC)N1CCOCCOCCN(P(=S)(OCC)OCC)CCOCCOCC1	-8	14	-6	x	-10	-3	-5	i
CC(C)OP(=O)(OC(C)C)C(O)c1ccc(Br)cc1 (stereo not given)	-4	x	2	x	0	1	-4	i
CC(C)=CCSc1nnc([C@@H](N)Cc2c[nH]c3ccccc23)o1	-7	14	7	-13	-5	0	-5	i
CC1(C)CC(n2[nH]c(=O)c3c2NC(=O)CSC3c2ccccc2)CCO1 (stereo not given)	-4	x	-7	-12	7	7	3	i
O=C1CCCN1c1ccc(S(=O)(=O)O)cc1 (tested in a mixture with another compound)	-16	8	-8	x	-3	1	5	i
Cc1ccc(Cn2nc(C(=O)Nc3ccc(Br)cc3)cc2C)cc1	-8	47	-17	-16	x	6	-27	i
O=C(O)c1ccccc1N=Nc1c(O)[nH]c(=O)[nH]c1=O	-3	-55	14	-19	-18	-1	-1	i
Cc1c2cnn(CC(=O)N3CCC4(CC3)OCCO4)c(=O)c2c(C)n1Cc1ccc(F)cc1	-12	x	1	-8	x	4	-1	i
NC(N)=N/N=C/c1ccc(N2CCOCC2)cc1	2	11	5	x	4	-2	-1	i
Cc1ccc(S(=O)(=O)N2CCCC(C(=O)N3CCC4(CC3)OCCO4)C2)cc1 (stereo not given)	8	-4	-2	21	-2	1	-3	i
COc1cc(C(CN)CC(=O)O)ccc1O (stereo not given)	2	4	-3	-10	-18	2	6	i
C1=C(c2c[nH]c3ccccc23)CCN(Cc2ccccc2)C1	-4	7	-5	x	-1	-10	-24	i
COCCN1C(=O)NC(=O)/C(=C\c2ccc(F)cc2)C1=O	20	7	-2	-18	-9	2	5	i
Cc1ccc(NC(=O)c2cc(-c3ccccc3)n(CCCN3CCOCC3)c2C)cc1	-8	-4	-9	-4	23	-4	1	x
CCn1nc(/C=C/c2ccccc2)nc2c(=O)n(C)c(=O)nc1-2	20	27	13	x	x	-2	-16	i
O=[As](O)(O)c1ccc(N=Nc2ccc(O)cc2)cc1	-1	-17	7	-15	-8	-3	-11	i
O=C1C2C3CCC(O3)C2C(=O)N1c1cccc(F)c1 (stereo not given)	x	-8	x	-6	-3	-1	2	i
CC(C)(C)N(NC(=O)c1ccccc1)C(=O)c1ccccc1	-6	24	-15	-23	3	1	-2	i
CN(C)c1nc(OCCNC(=O)COc2ccc(Cl)cc2Cl)nc(N2CCCCC2)n1	-7	x	-5	x	-7	-5	-5	i

Some of the entries above, set out differently:
| Molecule | eIF4H FP inh | Env fusion inh | PABP FP inh | Yeast UUG start | CSC inhib | MT1-MMP act inh | MT1-MMP act inh RFP | Rce1 inh |
| --- | --- | --- | --- | --- | --- | --- | --- | --- |
| C1=C(c2c[nH]c3ccccc23)CCN(Cc2ccccc2)C1 | -4 | 7 | -5 | x | -1 | -10 | -24 | i |
| Cc1ccc(NC(=O)c2cc(-c3ccccc3)n(CCCN3CCOCC3)c2C)cc1 | -8 | -4 | -9 | -4 | 23 | -4 | 1 | x |

Going on with the list:
SMILES	eIF4H FP inh	Env fusion inh	PABP FP inh	Yeast UUG start	CSC inhib	MT1-MMP act inh	MT1-MMP act inh RFP	Rce1 inh
O=C1/C(=C\c2ccc([N+](=O)[O-])cc2)N2CCC1CC2	-2	3	3	x	2	-2	2	i
CC(=O)N1N=C2C3CCN(CC3)C2C1c1ccc(F)cc1 (stereo not given)	-10	14	-5	x	-1	1	2	i
Cc1ccccc1CCNCc1cc2cccc(C)c2[nH]c1=O	8	-1	7	-8	-7	x	x	i
O=C(N/N=C/c1c(O)n(-c2ccccc2)c(=O)[nH]c1=O)c1ccncc1	16	-20	9	-31	x	-7	6	i
COc1cc2c3cc1Oc1cc(ccc1O)C[C@@H]1c4c(cc(OC)c(O)c4Oc4cccc(c4)C[C@@H]3N(C)CC2)CC[N+]1(C)C	x	19	x	5	-4	1	2	x
